# Screening data from PubChem BioAssay.
# Ba CapD inh – inhibitors of Bacillus anthracis CapD enzyme. purified CapD enzyme, fluorescence intensity read-out; hits give low values; some hits fall short of the stated cut. z-score (no concentration beside the values). 140,000 compounds, 0.23% hits;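 active = z-score under -4 in either of two replicates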;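 also: stock transfer was 100 nL into about 40 µL; score is relative to mean and spread of the plate; one replicate is shown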
# AID504770 – E. coli YBA685 growth inhibition, screen for V. cholerae RctB inhibitors; E. coli YBA685 rctB-dependent plasmid, OD600 growth, 3 h; hits give low values; z-score (test concentration not listed); 130,000 compounds, 0.27% hits; AID 504770;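 active = z-score under -2 on both plates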;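 also: wells of about 30 µL received 100 nL stock; score is relative to mean and SD of the test wells; the first replicate is given; strong numbers were not always called active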
# An asterisk follows results filed as active; / = not tested or not shown; & = joins results of further samples.
# Second line of a record – Ba CapD inh, AID504770
c1ccc(Nc2nc3nonc3nc2Nc2ccccc2)cc1
 : -1.5, 0.25
CC(C)CCNC(=O)C1CCCN(S(=O)(=O)c2ccc3c(c2)CC(C)N3C(=O)C2CC2)C1 (stereo not drawn)
 : -0.71, 1.15
COC(=O)c1ccc(COC(=O)c2ccco2)cc1
 : -0.26, -1.55
CN1CCC(OC(=O)c2cc3ccccc3o2)CC1
 : 0.575, 0.85
O=C(CCCC(=O)N1CCC(c2nc(-c3cccc(C(F)(F)F)c3)no2)CC1)NCc1ccc(Cl)cc1
 : 0.12, /
C=CCNC(=O)c1cc2cc(Cl)ccc2o1
 : /, -0.5
O=C(CN1CCOCC1)NCC1(c2ccccc2)CCCC1
 : -0.3, /
CC(C)(C)C(=O)OC1OCCOC1NC(=S)N1CCCC1 (stereo not drawn)
 : /, 0.25
O=C(Cn1c(=O)oc2cc(S(=O)(=O)N3CCCC3)ccc21)NCc1ccccn1
 : 0.105, -0.75
COc1ccc(OCC(O)Cn2nc(C)cc2C)cc1 (stereo not drawn)
 : -0.305, 0.15
CCOC(=O)c1cnn(-c2cccc(C)c2)c1C1CCNCC1
 : -0.24, -0.8
Cn1cc(CC(=O)NCCCN2CCOCC2)c2ccccc21
 : -0.1, -0.55
Cc1c(OC(C)C(=O)O)ccc2c3c(c(=O)oc12)CCCC3 (stereo not drawn)
 : 57, -0.95
S=c1[nH]nc(-c2ccco2)n1-c1ccccc1
 : 0.49&1.42, /
FC(F)(F)c1cccc(-n2cnnn2)c1
 : 0.32, -0.45
CCn1nc(-c2cccc(Br)c2)ccc1=O
 : /, -0.05
O=C(NC(CO)C(=O)O)c1cncc(O)c1 (stereo not drawn)
 : 10.8, -0.4
O=C(NCC1CCCO1)c1ccc(CS(=O)(=O)c2cccc(C(F)(F)F)c2)o1 (stereo not drawn)
 : 0.655, 0.05
CCN1CCN(C(=O)c2cn(-c3ccccc3)nc2-c2ccccc2)CC1
 : /, -0.35
N#CCCN(C(=S)Nc1ccccc1Cl)C1CCCCC1
 : -0.435, /
NC(=O)c1ccc(C(F)(F)F)cn1
 : /, -0.35
CCOc1ccc(NS(=O)(=O)c2ccc3[nH]cc(C(=O)N4CCCCC4)c(=O)c3c2)cc1
 : -0.205, 0.4
O=S(=O)(NNc1nccc(-c2cccnc2)n1)c1cccc(C(F)(F)F)c1
 : -0.38, -1
O=C1CCCN2N=C(SCc3ccc(Br)cc3)SC2=N1
 : /, -0.45
Cc1cc(C(=O)Cn2ccsc2=N)c(C)n1C1CC1
 : /, 0.25
O=C(c1ccc(Cl)cc1Cl)N1CCN(Cc2ccccc2)CC1
 : -0.755, 0.65
O=c1c(F)cn(CC2CC(c3ccccc3)=NO2)c(=O)n1CC1CC(c2ccccc2)=NO1 (stereo not drawn)
 : 0.49, -2.25
CC1(C)CC(=O)C2=C(C1)c1c(ccc3ccccc13)NC2c1ccc(-c2cccc(Cl)c2)o1 (stereo not drawn)
 : 2.95, /
Cc1cccc(CCOC(=O)NC(c2ccccc2)c2ccc(Cl)cc2)c1 (stereo not drawn)
 : -0.515, /
CC(C)C1Nc2ccc(C(=O)N3CCN(c4ccccn4)CC3)cc2NC1=O (stereo not drawn)
 : 0.25, -0.75
N#Cc1ccc(-c2cccs2)nc1SCC(=O)c1ccc(Cl)cc1Cl
 : -0.395, /
COC(=O)c1ccc2c(c1)N(C)S(=O)(=O)c1cnc(SC)nc1-2
 : 3.07, 1.6
Cc1ccc(CSc2nnc(-c3ccccc3N)c(=O)[nH]2)cc1
 : -0.71, 0.45
COc1cccc(C2=N/C(=C\c3ccccc3OC)C(=O)N2c2ccc(C)cc2C)c1
 : -0.825, /
CCOC(=O)c1oc2ccccc2c1COC(=O)CCC(=O)c1ccccc1
 : /, 1.35
Cc1cc(C)n(-c2ccc(CC#N)cc2)n1
 : /, -0.25
Cc1ccc2nc(NS(C)(=O)=O)sc2c1
 : /, -0.75
CCN(CC)S(=O)(=O)c1cc(C(=O)O)ccc1OC
 : -0.23, -0.4
CC(=O)c1ccc(NC(=O)c2cnn3c(C(F)(F)F)cc(-c4ccc(Br)cc4)nc23)cc1
 : -0.405, /
CCCc1nnc(SCc2nnc(-c3ccccc3)o2)o1
 : /, 1.45
CCOC(=O)c1sc2nc(-c3ccc(C)cc3)cc(-c3ccco3)c2c1N
 : 1.4, /
COc1ccc(N2C(=O)C3C(c4ccccc4Cl)OC4(C(=O)c5ccccc5C4=O)C3C2=O)cc1 (stereo not drawn)
 : 1.71, /
N/C(CCS(=O)(=O)c1ccc(Cl)cc1)=N\O
 : -0.805, -0.05
N#CC(C#N)C(CC(=O)c1cccs1)c1ccccc1 (stereo not drawn)
 : /, 1.15
COc1cccc(-c2cc(C(=O)NC3CC3)[nH]n2)c1
 : 0.215, -1.4
C(=N/n1cnnc1)/c1ccc(N2CCCCC2)cc1
 : 10, 1.75
CCOc1ccc(C(=O)Nc2c(N)nc(SC)[nH]c2=O)cc1
 : /, -0.05
COc1ccc(N2C(=O)/C(=C\c3ccc(O)c(Br)c3)C(=O)NC2=S)cc1
 : -0.215, /
O=C(Cn1c(=O)c2cccn2c2ccccc21)NC1CCCc2ccccc21 (stereo not drawn)
 : 0.215, 0.9
CC(C)Cc1ccc(C#N)c(SCC(=O)Nc2ccc(C(=O)O)cc2)n1
 : 0.4, /
OCc1nc(-c2ccccc2)cs1
 : -0.225, -0.45
Cc1ccc(-n2sc3ccccc3c2=O)cc1
 : 0.155, -1.35
Cn1c(=O)n(C)c2cc(CN3C(=O)OC(C)(C)C3(C)O)ccc21 (stereo not drawn)
 : -0.15, -0.2
O=C1CSc2ccc(C(=O)N3CCN(c4ccc(F)cc4)CC3)cc2N1
 : /, -0.8
O=C(CSc1nc2c(c(=O)n1CCc1ccccc1)SCC2)N1CCCC1
 : /, -0.05
Cc1cccc(C(=O)N=Nc2c(O)[nH]c3ccc(C)cc23)c1
 : /, -0.5
O=S(=O)(Nc1ccccc1)c1ccc(Cl)cc1
 : /, -0.05
O=C(N1CCc2ccc(S(=O)(=O)NCC3CCCO3)cc2C1)C(F)(F)F (stereo not drawn)
 : -0.675, /
CCOc1ccccc1NC(=O)c1ccc(F)c(S(=O)(=O)N2CCN(c3ccc(OC)cc3)CC2)c1
 : 0.275, /
O=C(c1cnn(C(=S)Nc2ccccc2)c1)c1cc(Cl)ccc1O
 : -0.41, 0.75

# 2 entries from above, bar-delimited:
mol | Ba CapD inh | AID504770
O=S(=O)(Nc1ccccc1)c1ccc(Cl)cc1 | / | -0.05
O=C(N1CCc2ccc(S(=O)(=O)NCC3CCCO3)cc2C1)C(F)(F)F (stereo not drawn) | -0.675 | /

# (more compounds)
# Second line of a record – Ba CapD inh, AID504770
O=C(CCSc1nnc2ccccn12)Nc1ccc(F)cc1
 : 7.19, -0.85
CCc1ccc(NC(=O)N(Cc2ccco2)C2CCN(Cc3ccccc3)CC2)cc1
 : 0.285, 0.1
CC(C)OC(=O)c1nnn(-c2nonc2N)c1CN1CCCC1
 : -0.12, /
Cc1nc2ccc(NS(=O)(=O)c3ccc(F)cc3)cc2s1
 : /, 0.4
CC(=O)NCc1ccc(C(=O)CSc2n[nH]c(-c3cccs3)n2)s1
 : /, 0.05
COc1cccc(NC(C)=O)c1
 : 0.17, /
O=C(COC(=O)c1ccc(I)cc1)NC1CCCCC1
 : -0.62, 0.2
O=C(c1ccc([N+](=O)[O-])cc1)N1CCNCC1
 : 0.69, /
COc1ccc(OC)c(N2CC(O)(c3ccc(OC)c(OC)c3)[N+]3=C2SCCC3)c1 (stereo not drawn)
 : 0.46, /
O=c1oc(-c2ccc(Br)cc2)nc2scc(-c3ccc(-c4ccccc4)cc3)c12
 : -0.05, /
Cc1ccc(CNC(=O)CSc2nc3ccccc3c(=O)n2-c2ccccc2)cc1
 : 2.16, 1.45
CCC1(CC)NC(=S)N(Nc2ccccc2)C1=O
 : 0.23, -0.5
O=C1c2ccccc2C(=O)C1c1ccncc1
 : -2.69, -0.7
O=C(Nc1ccccc1)c1cccc(-c2nnc(-c3ccccc3)o2)c1
 : 0.325, -0.05
CCC1CCCCN1C(=O)c1cnn2cccnc12 (stereo not drawn)
 : 0.09, 2.5

# Quoted at random: 5 entries already listed, in no set order.
# Second line of a record – Ba CapD inh, AID504770
N/C(CCS(=O)(=O)c1ccc(Cl)cc1)=N\O
 : -0.805, -0.05
CCOc1ccc(C(=O)Nc2c(N)nc(SC)[nH]c2=O)cc1
 : /, -0.05
COc1ccc(OC)c(N2CC(O)(c3ccc(OC)c(OC)c3)[N+]3=C2SCCC3)c1 (stereo not drawn)
 : 0.46, /
Cn1cc(CC(=O)NCCCN2CCOCC2)c2ccccc21
 : -0.1, -0.55
Cn1c(=O)n(C)c2cc(CN3C(=O)OC(C)(C)C3(C)O)ccc21 (stereo not drawn)
 : -0.15, -0.2

# (next part)
# Second line of a record – Ba CapD inh, AID504770
NC(N)=N/C(N)=N/c1nc(-c2ccccc2)cs1
 : 0.365, /
FC(F)(F)c1cc(-c2ccco2)nc(-n2cccn2)n1
 : -0.215, 1.1
Cc1nn(CC(=O)N(C)C)c(C)c1S(=O)(=O)N(C)C
 : /, 0.4
CCOc1ccccc1/C=C(\C#N)c1nc(-c2cc3cc(Br)ccc3oc2=O)cs1
 : 0.395, /
CCCCCCC1C(C#N)=C(N)OC2=C1C(=O)CC(C)(C)C2 (stereo not drawn)
 : 1.17, 0.5
CC1CCN(C(=O)CCn2ccc3cc(S(=O)(=O)N4CCCCC4)ccc32)CC1
 : 0.39, 0.85
COc1cc(OC)c(OC)cc1CNc1ccc2[nH]c(=O)[nH]c2c1
 : 3.47, 0.95
c1ccc(NC2=NCCS2)cc1
 : -0.22, -0.25
N#CC1=C(N)Oc2n[nH]c(-c3ccc4c(c3)OCO4)c2C1c1ccccc1Br (stereo not drawn)
 : -0.05, /
O=C(c1cc(Cl)nc(Cl)c1)N1CCN(C(=O)c2ccc3cc[nH]c3c2)CC1
 : 0.07, /
Cc1cc(C)n(-c2nc(-c3ccccc3)nc3c2COC(C)(C)C3)n1
 : 0.11, -0.1
O=C(Cn1nnc(N2CCOCC2)n1)c1ccccc1
 : 0.47, -0.7
Cn1c(O)c(/C=N/N(c2ccccc2)c2ccccc2)c2ccccc21
 : -0.11, 0.05
Cn1cncc1S(=O)(=O)/C(C#N)=N/Nc1ccc(OC(F)(F)F)cc1
 : -2.7, /
O=C(O)c1cccc(N2C(=O)/C(=C/c3ccc([N+](=O)[O-])cc3)C=C2c2ccccc2)c1
 : -0.39, /
CC1CCCCC1N1CCC(CNC(=S)Nc2cccc(Cl)c2)C1 (stereo not drawn)
 : -0.775, -0.5
COC(=O)C1=C(C)NC2=C(C(=O)CC(c3ccc(OC)c(OC)c3)C2)C1c1cccc(Br)c1 (stereo not drawn)
 : 28.3, /
O=[N+]([O-])C(/C=N/OCc1c(F)cccc1Cl)S(=O)(=O)c1ccccc1 (stereo not drawn)
 : -0.785, /
CC(C)Oc1ccc2ccc(=O)oc2c1
 : /, 0.4
O=C(CN1C(=O)CSC1=O)Nc1cccc(Cl)c1
 : /, 1.05
O=C(c1cc2nc3c(c(C(F)(F)F)n2n1)CCc1ccccc1-3)N1CCCC1
 : 0.235, -1.2
N#CCN1CCN(c2cccc(Cl)c2)CC1
 : -0.475, 1.4
CCC(CC)NC(=O)c1ccc(OC)cc1OC
 : 0.445, -0.3
CCOC(=O)C1CCN(C(=O)c2c[nH]c3ccc(S(=O)(=O)N(CC)c4ccc(F)cc4)cc3c2=O)CC1
 : 2.26, /
O=C(/C=C/c1cn(-c2ccccc2)nc1-c1ccccc1)OCC(=O)N1CCN(C(=O)c2ccco2)CC1
 : /, 0.25
Cn1cccc1Cc1nnc(SCC(=O)NC2CCCCC2)n1CCc1ccccc1
 : -1.41, 0.2
O=C(NCc1c(Cl)cccc1Oc1ccccc1)c1cccs1
 : 0.05, /
Cc1ccc(S(=O)(=O)NC2=NCN(c3ccc(Cl)cc3)CN2)cc1
 : 0.385, -0.4
Cc1ccccc1-n1nc2c(c1NC(=O)c1ccc(C(=O)c3ccccc3)cc1)CS(=O)(=O)C2
 : -0.31, /
CCCc1ccc(S(=O)(=O)Nc2ccc(C)c(NS(C)(=O)=O)c2)cc1
 : 0.895, -0.8
c1ccc(CN(Cc2ccccc2)c2ccccc2)cc1
 : -0.03, /
c1ccc(CN2CCC(Nc3ncnc4c3oc3ccccc34)CC2)cc1
 : /, 0.85
COc1cccc(C(=O)Nc2c3c(nn2-c2ccc(F)cc2)CSC3)c1OC
 : 0.595, 1.25
COc1ccc(/C=C2/SC(=O)N(CNc3ccccc3Br)C2=O)cc1
 : -0.515, /
COc1cc(C(=O)O)ccn1
 : /, -0.5
CC(C)(CO)NS(=O)(=O)c1ccc2c(c1)oc(=O)c1cc(S(=O)(=O)NC(C)(C)CO)ccc12
 : 1.08, 1.45
CCOC(=O)C1=C(N)OC2=C(C(=O)CC(c3ccccc3)C2)C1c1ccccc1C (stereo not drawn)
 : 0.01, /
Cc1ccc2nc(NC(=O)C3CCCC3)sc2c1
 : -0.54, -0.85
COc1ccc(CCNC(=O)c2ccc(CSc3ccc(Cl)cc3)o2)cc1OC
 : 0.52, /
CN(Cc1ccccc1)C(=O)CCCn1c(=O)c2cccn2c2cccnc21
 : 24.8, 0.1
Cc1cc(N2CCCC2)nc2ccc(NC(=S)NCCN3CCOCC3)cc12
 : 2.83, -0.6
CSc1ccccc1NC(=O)C(C)NS(=O)(=O)c1ccc(C)cc1 (stereo not drawn)
 : -0.255, -0.5
COC(=O)NCCCN1CCCC1=O
 : -0.15, -1.05
Cc1ccc(-c2cc(C(=O)Nc3nccs3)c3ccccc3n2)o1
 : /, 0.5
COc1ccc([N+](=O)[O-])cc1C(c1c(C)n(C)n(-c2ccccc2)c1=O)c1c(C)n(C)n(-c2ccccc2)c1=O
 : -0.16, /
Cc1cc2nc(CN3CCCCC3)cc(=O)n2o1
 : 1.11, 1
CCC(Sc1nc2c(c(=O)n1-c1ccccc1)SCC2)C(=O)OC (stereo not drawn)
 : -1.73, 2.7
Cn1cccc1C(=O)NC(=O)CSc1nc2ccccc2s1
 : /, 1.1
O=C(NCCc1ccccc1)C1CCCC1
 : -0.01, 0.65
